# NPR1 antag = blocks ANP-stimulated signaling of human Npr1 receptor; HEK293 hNpr1 GloSensor cGMP, ANP-stimulated luminescence; P16066; hit rate 1.6% among 76,000; AID 1347048; Potency, µM (doses to about 46.3 µM), for inactives: at the top dose activity change, negative = inhibition, most hits filed as inhibitors; active = well fitted inhibition curve with a large enough effect; inconclusive = small, poorly fitted or top-dose-only effect; inactive = no such curve, though single readings can be large or run the other way;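 further: nearly all actives have a fitted effect of over 60% in size; nearly all hits also lower the signal before the agonist is added; a reference antagonist and vehicle were the controls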
# Target sequence (P16066 whole entry, looked up): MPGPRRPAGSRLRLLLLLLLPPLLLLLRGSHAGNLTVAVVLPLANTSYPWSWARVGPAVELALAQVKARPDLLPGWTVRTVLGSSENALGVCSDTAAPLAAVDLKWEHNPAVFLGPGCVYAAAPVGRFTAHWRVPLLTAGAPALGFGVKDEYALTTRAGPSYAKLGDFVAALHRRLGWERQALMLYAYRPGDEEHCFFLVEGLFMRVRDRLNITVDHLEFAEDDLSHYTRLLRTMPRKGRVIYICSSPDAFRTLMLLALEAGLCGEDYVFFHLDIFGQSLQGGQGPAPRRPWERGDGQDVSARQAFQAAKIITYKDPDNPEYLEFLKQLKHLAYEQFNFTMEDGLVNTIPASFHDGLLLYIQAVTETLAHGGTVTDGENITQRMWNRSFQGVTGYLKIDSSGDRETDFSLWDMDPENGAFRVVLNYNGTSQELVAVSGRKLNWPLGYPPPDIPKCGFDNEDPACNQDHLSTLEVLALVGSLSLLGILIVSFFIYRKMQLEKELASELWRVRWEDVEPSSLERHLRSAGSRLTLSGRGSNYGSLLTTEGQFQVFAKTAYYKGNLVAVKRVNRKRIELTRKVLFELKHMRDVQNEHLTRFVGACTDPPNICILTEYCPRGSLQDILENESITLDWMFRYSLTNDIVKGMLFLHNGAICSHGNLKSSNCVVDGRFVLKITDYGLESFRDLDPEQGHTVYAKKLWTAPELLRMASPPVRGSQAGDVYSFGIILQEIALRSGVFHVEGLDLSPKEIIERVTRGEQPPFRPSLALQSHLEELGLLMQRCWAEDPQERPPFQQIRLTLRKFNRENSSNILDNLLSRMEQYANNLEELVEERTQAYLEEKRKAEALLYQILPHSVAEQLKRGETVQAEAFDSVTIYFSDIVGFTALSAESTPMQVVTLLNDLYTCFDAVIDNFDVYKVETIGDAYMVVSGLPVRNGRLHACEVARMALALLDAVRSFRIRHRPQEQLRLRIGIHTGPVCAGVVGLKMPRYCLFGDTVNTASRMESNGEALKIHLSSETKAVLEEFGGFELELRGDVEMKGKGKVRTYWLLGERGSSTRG
#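 HEK293 cells stably expressing human Npr1 and cGMP GloSensor pGS-40F, loaded 2 h with 2% GloSensor reagent, given compound 30 min at room temperature. Luminescence read before and 20 min after 0.1 nM hNppA.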
# The depositor's hits bear a star; ? = inconclusive; [ ] = dose if it differs, or a comment. On the % scale 0 is the no-effect control and ±100 the full control effect; potency means the concentration at half of the fitted maximal effect.
compound	NPR1 antag
CC(C)CC(=O)NC[C@@H]1C[C@H](F)CN1C(=O)CCCc1cccs1	5.5%
Cc1nc(-c2cccc(Cl)c2)n(CC(=O)Nc2ccccc2)c(=O)c1CCO	-11.3%
Cn1cnnc1CC1CCN(C(=O)c2ccccc2)CC1	-0.7%
COC(=O)N1CCc2nc(C)nc(-c3ccc(Cl)cc3)c2CC1	2.7%[70.6 µM]
CN(C)c1cc(N2CCCC(NC(=O)C3CCC3)C2)ncn1 (stereo unspecified)	-0.5%
O=C(COc1ccc(Cl)cc1)N1CCc2nn(CC3CC3)c(=O)n2CC1	2.6%
COc1cccc(N2CCN(c3nc(C(=O)NCc4cccnc4)cs3)CC2)c1	11.2µM*
CCN1c2cc(C(=O)NC3CCN(Cc4ccccc4)CC3)ccc2C(=O)N2CCCCC21 (stereo unspecified)	3.6%
CCOc1ccc(C2NC(=O)N(CCOC)C3=C2C(=O)OC3)cc1 (stereo unspecified)	-2.2%
Cc1ccsc1CN1CCCCCNC(=O)[C@@H]2CCC[C@@H]21	-2.9%
Cc1ccc(-c2ncc(C(=O)NCCC3=CCCCC3)c(-c3ccncc3)n2)cc1	-20.0%
COCCNC(=O)CC1=CSC2=NC(C)=C(C(=O)OC(C)C)C(c3ccc([N+](=O)[O-])cc3)N12 (stereo unspecified)	-18.3%
Cc1ccc(OCC(O)CNc2nc(C)nc3c2c(C)nn3C)c(C)c1 (stereo unspecified)	?
OCC1(CC2CC2)CCCN(c2nc(-c3ccccc3)no2)C1 (stereo unspecified)	-3.5%
COC(=O)c1cn([C@H]2CO[C@H]3[C@@H]2OC[C@@H]3NC(=O)c2ccc(C)cc2)nn1	-2.2%[70.6 µM]
COc1ccc(C2Cn3nnc(-c4noc(-c5ccccc5)n4)c3CO2)cc1 (stereo unspecified)	-28.1%
Cc1nc(C(=O)Nc2nn(Cc3ccccc3)c3cc(OC(C)C)ccc23)c(C)o1	7.1%
COCCN1C(=O)CS(=O)C12CCN(C(=O)c1cccc3[nH]ccc13)CC2 (stereo unspecified)	-6.0%
O=C(C[C@@H]1O[C@H](CNC(=O)Nc2cccc(F)c2)[C@@H](O)[C@H]1O)NCc1ccc(F)cc1	3.2%
CNS(=O)(=O)CCNc1nc(-c2ccccn2)nc2c1c(C)nn2C	9.1%
CN(C)[C@@H]1CN(Cc2ccc(Br)o2)CC[C@@H]1CNC(=O)C1CC1	2.9%
O=C(O)c1ccc(CC2CCN(C(=O)C3CC3)CC2)cc1	3.0%
O=C(NCCc1ccncc1)C1CN(C(=O)c2ccc(Cl)cc2)CC12CCOCC2 (stereo unspecified)	-2.7%
CN(C(=O)c1ccc(Cl)nc1)C1CCc2ccccc21 (stereo unspecified)	-3.5%[70.6 µM]
O=C(c1cccnn1)N1CC(F)(F)C[C@H]1c1nc(-c2ccccc2)no1	3.7%
Cc1ccc(CNC(=O)c2ccc3c(c2)CN(C2CCN(CC(C)C)CC2)CCO3)cc1	-1.7%
O=C(O)c1cnc(NCc2ccccn2)nc1-c1cccc(Cl)c1	-7.4%
Cc1nc(CN2C[C@H](C(=O)Nc3cccc(F)c3)C[C@@H]2c2ccc(F)cc2)cs1	-17.9%[70.6 µM]
CN1C(=O)C(CC(=O)NC2CCCC2)=C2CCCCC21 (stereo unspecified)	1.5%
Cn1c2c(c3ccccc31)CN(C(=O)c1ccccc1)CC2	-20.3%

# An excerpt of these results, with each value named.
Cc1nc(C(=O)Nc2nn(Cc3ccccc3)c3cc(OC(C)C)ccc23)c(C)o1
  NPR1 antag: 7.1%

COCCN1C(=O)CS(=O)C12CCN(C(=O)c1cccc3[nH]ccc13)CC2 (stereo unspecified)
  NPR1 antag: -6.0%

# (next part)
compound	NPR1 antag
COc1ccccc1-c1nnc([C@H]2CCN(C(=O)c3ccccc3)C2)o1	5.3%[70.6 µM]
CN(C1CCOCC1)C1CCN(C(=O)c2ccncc2)CC1	6.9%
COCCOCc1nc(C2CCCCN2C(=O)c2ccco2)no1 (stereo unspecified)	0.8%
CCc1c(C)nn(CC(=O)NC2CCCN(c3ncccn3)C2)c1C (stereo unspecified)	0.6%
CO[C@H]1C(=O)N(C(C)C)[C@H]1C1CCN(C(=O)C(C)C)CC1	0.4%
COc1ccc(CN2CCNc3cc(-c4ccccc4)ncc3C2)cc1O	-15.9%[70.6 µM]
CCN(CC)Cc1nc(C2(O)CCN(Cc3ccccc3)CC2)cs1	0.3%[70.6 µM]
Cc1ccc2c(c1)nc1n2[C@@H](CNC(=O)c2ccccc2)COC1	4.3%[70.6 µM]
COC[C@H]1C[C@@H](NCc2cccc(Cl)c2)[C@H](O)[C@@H]1O	4.3%[70.6 µM]
O=C1c2c(nc(CNCc3cccc(F)c3)n2Cc2ccccc2)NCCN1Cc1cccc(Cl)c1	-23.8%
CN(Cc1cccc(-n2cccn2)c1)C(=O)C1COc2ccccc2C1 (stereo unspecified)	1.6%
C=CCN1CCN(C(=O)CN2CC3CC(C2)[C@H]2CCCC(=O)N2C3)CC1 (stereo partly specified)	0.5%
O=C(NC1CCN(Cc2ccccc2)CC1)C1(CCO)CCN(c2ncccn2)C1 (stereo unspecified)	-1.6%
CC(C)c1noc(-c2cccn3c(CNC(=O)C(C)c4ccccc4)nnc23)n1 (stereo unspecified)	-24.1%
CCOC(=O)C1CCN(Cc2ccccc2OCC(O)CN(C)C2CCCCC2)CC1 (stereo unspecified)	-4.2%
O=C(NC1CCCC1)NC1CCCN(c2cc(N3CCCC3)ncn2)C1 (stereo unspecified)	4.4%
CCn1ccc(C(=O)N2CCCCCCNC(=O)[C@@H]3C[C@@H](c4nc(-c5cccnc5)no4)C[C@@H]32)n1	-3.4%
Cc1noc([C@@H]2CN(C(=O)c3cc(C)n(Cc4ccco4)c3C)C[C@H]2C(N)=O)n1	2.8%
O=C1CC(c2ccccc2)N(C(=O)CNC(=O)NCCc2ccccc2)CCCCCN1 (stereo unspecified)	0.6%
CC1=C[C@@H](CO)[C@H](C(C)C)C[C@H]1Cc1nnc(-c2ccncc2)o1	-15.3%[70.6 µM]
Cc1ccc(C(=O)N2CCC(n3cc(-c4nc(C)no4)nn3)C2)c(C)c1 (stereo unspecified)	2.6%
COc1cncc(Nc2cnc3ccc(-c4ccc(OC)nc4)nn23)c1	1.3%[70.6 µM]
COc1ncccc1-c1ncc2c(n1)OCCN(c1ccccc1)C2=O	-0.5%[70.6 µM]
O=c1c2c(n(Cc3cccnc3)n1CCc1ccccc1)CN(CC1CCOC1)CC2 (stereo unspecified)	2.1%[70.6 µM]
Cc1cc(CNC(=O)[C@@H]2CCC[C@@H](NC(=O)NC3(c4ccccc4)CCOCC3)CN(C)C(=O)C2)no1	-0.3%
C=CCN1CC2(CCC1=O)CCN(Cc1cccc(C#N)c1)CC2	-7.2%
COc1ccc(NC(=O)CN2C(=O)NC3(CCC(C)CC3)C2=O)cc1OC (stereo unspecified)	3.1%
Cc1noc(-c2ccco2)c1C(=O)NCc1cccc(Cl)c1	-10.1%
COCCNC(=O)C[C@@H]1c2nc(NC(=O)c3ccco3)sc2C[C@@H]2[C@](C)(CO)[C@H](O)CC[C@]21C	4.8%
COc1ccc(-c2[nH]nc3ncc(-c4cccc(CO)c4)nc23)c(C)c1	-0.7%[70.6 µM]
CC(=O)c1cc(CN2CCC3(CC2)C(C(=O)O)CC(=O)N3C)n(C)c1 (stereo unspecified)	0.2%
Cc1ccncc1C(=O)N1CC(N(C)Cc2cccnc2)C1	-2.2%
O=C1CCN(C(=O)[C@H](Cc2ccccc2)NS(=O)(=O)c2ccccc2)CCCOCCN1	2.2%
COc1ccc(-c2cc(C[C@H]3CNCC[C@H]3CC(=O)N3CCC(Cc4ccccc4)CC3)no2)cc1	-0.3%
COc1ccccc1CCC(=O)N1CCC(Oc2ncccc2C(=O)N(C)C)C1 (stereo unspecified)	5.3%
CN1C(=O)c2cccn2CC1CNC(=O)C1CCCC1 (stereo unspecified)	-0.9%
Cc1cc(=O)n(CC(=O)Nc2ccccc2C)c(-c2ccccc2)n1	3.5%
CCCN1CCC2(CCN([S+](=O)([O-])c3c(C)noc3C)CC2)Oc2ccccc21	0.0%
CN(C(=O)c1ccc(OC2CCN(C(=O)C3CC3)CC2)cc1)C1CCCc2ccccc21 (stereo unspecified)	-15.4%
CC(C)CCNC(=O)CC1Sc2ncccc2N(C)C1=O (stereo unspecified)	-11.2%
CC(C)Oc1ccc(CNC(=O)C2Cn3cccc3C(=O)N2C)cc1 (stereo unspecified)	-4.8%
O=S(=O)(Cc1ccccc1)N[C@H]1CO[C@H]2[C@@H]1OC[C@@H]2n1nnnc1Oc1ccc2c(c1)OCO2	1.5%
O=C1CC[C@@]2(C(=O)N3CCOCC3)CCCC[C@@H]2N1CCc1ccccc1	-2.5%
Cc1c(CNC(=O)c2ccccc2C2CCNC2)oc2ccccc12 (stereo unspecified)	-0.4%
O=C(NC1CCC(n2cc(C(=O)N3CCCC3)nn2)CC1)C(c1ccccc1)C1CCCC1 (stereo unspecified)	-0.2%
Cc1cnn(CCC(=O)N2CCC3(CCOCC3)CC2)c1	2.1%
CN(C)CC1(O)CCCN(Cc2ccc(-c3ccc(Cl)cc3)o2)C1 (stereo unspecified)	-3.1%
O=C1CCCN1CCCN1C(=O)[C@H]2CN(Cc3ccccc3Cl)C[C@H]2C1=O	5.9%
CNC(=O)N1CCC2(CC1)CC(N1CCN(c3ccccn3)CC1)CCO2 (stereo unspecified)	-1.1%
Cc1cc(C)n(C(C)CNC(=O)c2cccc(CCC(C)(C)O)c2)n1 (stereo unspecified)	6.3%
COc1ccccc1NC(=O)Cn1c(N2CCC(C)CC2)nc(C)cc1=O	-20.2%
O=C(c1cnc2c(c1)N([S+](=O)([O-])c1cccnc1)CCC2)N1CCCC(CO)C1 (stereo unspecified)	0.8%[70.6 µM]
CSc1ccc(-c2nc(CN3CCOCC(CN(C)C)C3)c(C)o2)cc1 (stereo unspecified)	1.2%
CC(C)NC[C@H]1O[C@@H](CO)[C@@H](O)[C@H]1N1CCN(C)CC1	4.4%[70.6 µM]
COc1ccc(CCNC(=O)c2c(C)noc2-c2ccco2)cc1OC	-0.2%
Cn1c(CNC(=O)c2cc[nH]c2C2CCCNC2)nc2ccccc21 (stereo unspecified)	-0.8%
O=C(N[C@@H]1COCC[C@@H]1OCc1ccccc1)c1nc2ncccc2[nH]1	2.9%
N#Cc1ccc(C(=O)N2CCC(n3cc(-c4nc(-c5ccccc5)no4)nn3)CC2)cc1	0.0%
Cc1nnc2n1CCC(N(C)C(=O)NCc1ccco1)CC2 (stereo unspecified)	2.8%
CC1(C)CN(C(=O)CCc2nc(-c3ccco3)no2)CC1(C)O (stereo unspecified)	-1.1%

# Carrying on:
compound	NPR1 antag
CN(Cc1ccco1)C1CCc2nn(C)c(=O)n2CC1 (stereo unspecified)	-1.9%
CN(C)C(=O)c1cc2cccnn2n1	2.0%[70.6 µM]
COC[C@@H]1CN(C(=O)c2cc(C)oc2C)C[C@H]1c1nc(C2CC2)no1	-30.5%
COc1cccc(-c2n[nH]c3c2CC(=O)N(CC2CCOCC2)C3)c1	-2.2%[70.6 µM]
COc1ccc(-c2cc(N3CCC(NC(=O)C4(c5ccccc5)CC4)CC3)n[nH]2)cc1	-9.2%
CCn1ccc(C(=O)N2C[C@H](CO)C[C@H](CN3CCCC3)C2)n1	3.2%
Cc1ccccc1CN1CC2(COCC1=O)CN(c1ccccc1)C2	-4.8%[70.6 µM]
O=C(NC1CCC1)C1=NO[C@@H]2CN(CCc3ccccc3)C[C@H]12	-0.3%[70.6 µM]
Cc1cc(C)n(CCC(=O)NCC2CCN(c3cc(-c4ccccc4)[nH]n3)CC2)n1	-4.0%
CC(C)NC(=O)c1ccc(-c2ccc(N3CCCCCC3)nc2)cc1	?
CN1CCN([C@H]2CCN(S(=O)(=O)c3cn(C)cn3)C[C@H]2CCC(=O)O)CC1	3.8%
COCC(=O)N1CCCN(c2nc3ncccc3o2)CC1	5.6%[70.6 µM]
CCn1nc(C)cc1C(=O)N1CCOC[C@H](Oc2ccc(OC)cc2)C1	3.8%[70.6 µM]
CC(=O)Nc1ccc(CNC(=O)CN2CCN(C(C)=O)CC2)cc1	14.1%
CC(C)NC(=O)NC[C@H]1O[C@@H]2C[C@@H](CC(=O)NCc3nccn3C)O[C@@H]2[C@@H]1O	5.3%[70.6 µM]
Cc1noc(C)c1C(=O)N1CC[C@H](N2CCN(C)CC2)[C@H](CCC(=O)O)C1	0.2%
COCCNC(=O)[C@@H]1C[C@H](Oc2cccnc2)CN1C(=O)C1(c2ccccc2)CC1	-8.4%
CCn1c(CC2CCN(Cc3ccc(S(C)(=O)=O)cc3)CC2)nn(C)c1=O	5.4%
CC(C)N(C)Cc1nnnn1CC(=O)N1CCC(O)(c2cccnc2)CC1	8.2%
CCn1cc(-c2ccc(C)cc2)cc1C(=O)NCCCN1CCOCC1	0.0%
COc1ccc(NC(=O)c2nnn3c2CN(Cc2cccc(Cl)c2)C(=O)CC3)c(C)c1	0.8%[70.6 µM]
COC(=O)[C@@H]1Cc2c([nH]c3ccccc23)[C@H]2C[C@H](NCCN3CCOCC3)C[C@@H](c3ccc(F)cc3)N21	-25.1%
CC1=C[C@@H](CNC(=O)c2cccnc2)[C@H](C(C)C)C[C@H]1CC(=O)NC1CCCC1	-19.3%[70.6 µM]
CC(=O)N[C@H]1C[C@@H](Cc2cc(CN(C)C)on2)C1(C)C	-1.4%[70.6 µM]

# Source: PubChem (National Center for Advancing Translational Sciences (NCATS))

# These rows are one share of the data; the hit share may differ from the screen's.
